A1 inh: inhibitors of the anti-apoptotic protein A1, read as caspase activation | MEF A1-2A-BIM cells, Caspase-Glo 3/7 luminescence, 3 h; percent of clofoctol response, vehicle zero | caspase activation, % (no concentration beside the values) | actives 0.066% (n = 330,000) | AID 2462;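 active = over half of replicate activation scores above 10%, or exactly half above 10 with the replicate mean above 10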;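 note: wells of about 30 µL received 50 nL stock; many hits fall short of the cut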
E coli growth: blocks Escherichia coli growth; OD600, 23 h; hits give low values; OD600 absorbance (no concentration beside the values); actives 0.21% (n = 330,000); AID 1053175;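 active = OD600 absorbance below the run mean of sample wells minus 3.6 SD, in any replicate, cut at about 0.56 in these data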;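 note: stock transfer was 300 nL into about 60 µL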
Ecoli rRNA inh: inhibitors of bacterial rRNA selective over humanized ribosomes; E. coli WT GFP vs humanized-ribosome RFP mutants, fluorescence, 24 h; hits give low values; DMSO median 0, no signal -100; actives 1.6% (n = 350,000); GFP signal change (wild-type ribosome), % (test concentration not listed);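 active = significant combined selectivity score with lowered wild-type GFP, culture density cut under 30%, mutant RFP and density less affected; inactive = any of these conditions unmet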; note: one replicate is shown; some compounds called inactive have numbers as strong as hits
T cruzi inh: T. cruzi replication inhibition. T. cruzi beta-gal in NIH3T3, luminescence, 90 h. inhibition, % (concentration not given with the values). AID 1885. actives 1.4% (n = 300,000);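 active = mean inhibition across valid replicates above about 55%, limit read from the data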;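 note: signal also drops with host cell toxicity which is not excluded here; 0% = plate median of DMSO wells and 100% = zero luminescence signal; higher percent means less beta-gal luminescence so fewer parasites; stock transfer was 50 nL into about 50 µL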
Beta apoptosis: beta cell apoptosis inhibition; actives 0.8% (n = 300,000); protection from apoptosis, % (test concentration not listed); INS-1E cytokine-induced death, ATP luminescence, 48 h; percent of positive-control rescue, neutral wells zero;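 active = all replicates at 75% or more, or half of them and the mean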;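 note: 0% = cytokine-treated negative control wells and 100% = positive control rescue; higher means more ATP so stronger rescue from cytokine killing; wells of about 40 µL received 100 nL stock; the first replicate is given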
UCH37 DUB inh: inhibitors of human deubiquitinating enzyme UCH37 | AID 588478 | actives 0.33% (n = 330,000) | inhibition, % (concentration not given with the values) | purified proteasome/UCH37, Ub-AMC cleavage fluorescence | Q9Y5K5;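 active = mean of two replicates above 20%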;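 note: 0% = compound-free wells with enzyme and 100% = wells lacking proteasome; stock transfer was 100 nL into about 20 µL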
Target sequence (Q9Y5K5 whole entry, looked up): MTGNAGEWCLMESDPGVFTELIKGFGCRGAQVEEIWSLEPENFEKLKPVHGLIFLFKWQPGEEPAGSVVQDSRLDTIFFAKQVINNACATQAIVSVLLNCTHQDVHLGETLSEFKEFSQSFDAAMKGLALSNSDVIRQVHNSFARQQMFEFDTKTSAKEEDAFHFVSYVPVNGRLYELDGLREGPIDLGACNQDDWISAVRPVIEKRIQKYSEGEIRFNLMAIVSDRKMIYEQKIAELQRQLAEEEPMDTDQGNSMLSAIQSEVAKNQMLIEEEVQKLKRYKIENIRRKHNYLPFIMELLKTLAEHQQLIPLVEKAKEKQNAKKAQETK
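Test system – human UCH37 enzyme supplied as purified proteasome complex · Incubation – 30 min preincubation with enzyme, 25 min cleavage at room temperature · Detection – AMC fluorescence from Ub-AMC cleavage, excitation 355 nm, emission 460 nm · Benchmarks – no-proteasome wells (full inhibition) and compound-free wells (no inhibition)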
AF4-AF9 inh: blocks AF4 peptide binding to human AF9; P42568; AlphaScreen, biotin-AF4 peptide binding to FLAG-AF9; inhibition, % at 10 µM; actives 0.47% (n = 350,000);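 active = every replicate reaching a set inhibition limit, whatever the replicate mean, cut at about 25% in these data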;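 note: 0% = plate neutral control median and 100% = total signal loss; the record names both 10 and 1 µM as test concentration; the first replicate is given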
Target sequence (P42568 whole entry, looked up): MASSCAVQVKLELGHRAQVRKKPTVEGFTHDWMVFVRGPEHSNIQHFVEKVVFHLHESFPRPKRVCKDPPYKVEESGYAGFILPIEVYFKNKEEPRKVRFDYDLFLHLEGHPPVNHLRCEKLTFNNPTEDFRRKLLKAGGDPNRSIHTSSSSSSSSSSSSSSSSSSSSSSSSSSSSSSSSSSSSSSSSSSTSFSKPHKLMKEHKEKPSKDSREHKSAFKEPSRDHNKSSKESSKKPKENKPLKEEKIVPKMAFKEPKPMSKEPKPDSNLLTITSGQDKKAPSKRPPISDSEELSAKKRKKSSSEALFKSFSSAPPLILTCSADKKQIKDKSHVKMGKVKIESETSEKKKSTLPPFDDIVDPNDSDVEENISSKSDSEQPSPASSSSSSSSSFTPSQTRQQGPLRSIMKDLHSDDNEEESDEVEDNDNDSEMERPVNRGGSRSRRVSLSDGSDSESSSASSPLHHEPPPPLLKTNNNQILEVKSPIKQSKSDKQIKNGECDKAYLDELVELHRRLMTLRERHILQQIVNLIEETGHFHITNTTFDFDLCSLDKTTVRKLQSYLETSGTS
FGF22 binding: FGF22 (human) thermal shift binding; recombinant FGF22 thermal shift, SYPRO orange fluorescence; percent of sucrose octasulfate shift, DMSO zero; calls only at 9.99 µM; actives 1.5% (n = 340,000);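 active = melting point raised past a set limit in the mean and every replicate; three in four hits are not shown here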
Target sequence (Q9HCT0 whole entry, looked up): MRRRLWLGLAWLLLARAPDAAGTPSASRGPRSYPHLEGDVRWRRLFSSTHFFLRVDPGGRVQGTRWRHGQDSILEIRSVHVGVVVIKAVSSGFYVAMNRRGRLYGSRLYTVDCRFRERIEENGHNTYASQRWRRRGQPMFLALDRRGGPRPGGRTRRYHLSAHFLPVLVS
Ecoli rRNA inh OD600: also measured in Ecoli rRNA inh; calls as there; OD600 change, %; measured here: OD600 growth;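 optical density of the mix in the first replicate; 0 = DMSO median and -100 = no signal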
Ecoli rRNA inh RFP: recorded beside Ecoli rRNA inh, whose call it bears; RFP signal change, %; measured here: RFP humanized mutant strains;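 first replicate; 0 = DMSO median and -100 = no signal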
* = called active by the depositor. Not all compounds are listed. The share of hits here may be higher or lower than overall.

How did CN1/C(=C\P(=O)(N(C)C)N(C)C)C(C)(C)c2ccccc21 do in these assays?
A1 inh: 0.1; E coli growth: 0.67; Ecoli rRNA inh: -22; T cruzi inh: 62*; Beta apoptosis: 87*; UCH37 DUB inh: 3.1; AF4-AF9 inh: 5.7; FGF22 binding: inactive; Ecoli rRNA inh OD600: -16; Ecoli rRNA inh RFP: 58

Results for COc1ccc(NC(=O)CN(C)S(=O)(=O)c2ccc3c(c2)CCCN3C(C)=O)cc1 ?
A1 inh: -1.2; E coli growth: 0.65; Ecoli rRNA inh: 4; T cruzi inh: -2; Beta apoptosis: -8; UCH37 DUB inh: 4.4; AF4-AF9 inh: 5.7; FGF22 binding: inactive; Ecoli rRNA inh OD600: 1; Ecoli rRNA inh RFP: 0.4

How did CCC(=O)Nc1nc2c(s1)COc1ccccc1-2 do in these assays?
A1 inh: 0.2; E coli growth: 0.67; Ecoli rRNA inh: -1; T cruzi inh: -24; Beta apoptosis: -7; UCH37 DUB inh: 2.5; AF4-AF9 inh: 9.3; FGF22 binding: inactive; Ecoli rRNA inh OD600: -9; Ecoli rRNA inh RFP: -1.1

What do the screens show for `O=C(O)c1ccccc1SCc1ccc2c(c1)OCO2`?
A1 inh: 1.1; E coli growth: 0.69; T cruzi inh: -1; Beta apoptosis: -5; UCH37 DUB inh: -4.8

Results for COc1ccc(OC)c(CCNC(=O)CCn2nc(C)c3c(C)n(-c4ccccc4)nc3c2=O)c1 ?
A1 inh: -0.5; E coli growth: 0.68; Ecoli rRNA inh: 9; T cruzi inh: 14; Beta apoptosis: 0; UCH37 DUB inh: 3.2; AF4-AF9 inh: 0.3; FGF22 binding: inactive; Ecoli rRNA inh OD600: 16; Ecoli rRNA inh RFP: 2.3

What do the screens show for `O=C(NCc1ccccc1)c1cnc(-c2ccccn2)nc1C(F)(F)F`?
A1 inh: -0.3; E coli growth: 0.71; T cruzi inh: 2; Beta apoptosis: -4; UCH37 DUB inh: 3.5

Results for O=c1[nH]n(-c2ccccc2)c(=O)cc1Cl ?
E coli growth: 0.72; Ecoli rRNA inh: 6; UCH37 DUB inh: 6.8; AF4-AF9 inh: -0.6; Ecoli rRNA inh OD600: 5; Ecoli rRNA inh RFP: 0.2

Results for CC(=O)N1C(=O)NC(c2ccccc2)=C([N+](=O)[O-])C1c1ccccc1 (stereo not given) ?
A1 inh: -0.6; E coli growth: 0.61; Ecoli rRNA inh: -6; T cruzi inh: -10; Beta apoptosis: -8; UCH37 DUB inh: 3.5; AF4-AF9 inh: 2.4; FGF22 binding: inactive; Ecoli rRNA inh OD600: -7; Ecoli rRNA inh RFP: 6.1

How did COCCCN(C(=O)Cc1ccc(S(=O)(=O)N2CCOCC2)s1)c1c(N)n(Cc2ccccc2)c(=O)[nH]c1=O do in these assays?
E coli growth: 0.72; Ecoli rRNA inh: 8; UCH37 DUB inh: -0.8; AF4-AF9 inh: 0.0; FGF22 binding: inactive; Ecoli rRNA inh OD600: 11; Ecoli rRNA inh RFP: -2.3

How did Cc1cc(C)c(C)c(S(=O)(=O)N2CCN(C(=O)c3cc(=O)[nH]c4ccccc34)CC2)c1C do in these assays?
A1 inh: 0.0; E coli growth: 0.71; Beta apoptosis: 7; UCH37 DUB inh: -8.0

Results for COc1ccc(OCCN(C)Cc2c(O)ccc3ccccc23)cc1 ?
A1 inh: 0.3; E coli growth: 0.7; Ecoli rRNA inh: -10; T cruzi inh: -11; Beta apoptosis: 1; UCH37 DUB inh: -6.4; AF4-AF9 inh: 3.2; FGF22 binding: inactive; Ecoli rRNA inh OD600: -9; Ecoli rRNA inh RFP: -1.7

What do the screens show for `COc1cccc2sc3cc(NCC[C@@H]4CCCN4C)ccc3c(=O)c12`?
A1 inh: -1.0; Ecoli rRNA inh: -9; Beta apoptosis: -2; UCH37 DUB inh: -68; AF4-AF9 inh: 3.6; FGF22 binding: inactive; Ecoli rRNA inh OD600: -11; Ecoli rRNA inh RFP: -4.9

Results for COc1ccc(OCCc2nnc(N)s2)cc1 ?
A1 inh: 0.4; E coli growth: 0.72; T cruzi inh: -9; Beta apoptosis: -1; UCH37 DUB inh: -0.3

What do the screens show for `CN(CC(=O)NCc1ccccn1)S(=O)(=O)c1ccc(F)cc1`?
A1 inh: 0.8; E coli growth: 0.72; Ecoli rRNA inh: 20; T cruzi inh: -11; Beta apoptosis: -4; UCH37 DUB inh: 1.5; AF4-AF9 inh: -1.5; FGF22 binding: inactive; Ecoli rRNA inh OD600: 13; Ecoli rRNA inh RFP: 2.4

Results for Fc1cc(F)c(F)c(SCn2cc(Br)cn2)c1F ?
E coli growth: 0.7; Ecoli rRNA inh: 11; UCH37 DUB inh: 4.0; AF4-AF9 inh: -0.6; Ecoli rRNA inh OD600: 3; Ecoli rRNA inh RFP: 2.7

Results for CN(C)c1ccc(NS(=O)(=O)c2ccc(-c3csnn3)cc2)cc1 ?
A1 inh: 0.9; E coli growth: 0.65; Ecoli rRNA inh: 1; T cruzi inh: -1; Beta apoptosis: 1; UCH37 DUB inh: 5.2; AF4-AF9 inh: 6.7; FGF22 binding: inactive; Ecoli rRNA inh OD600: -1; Ecoli rRNA inh RFP: 0.7

What do the screens show for `O=C(N[C@@H](c1ccccc1)[C@@H]1C[C@H]1C(=O)O)OCc1ccccc1`?
A1 inh: -1.6; Ecoli rRNA inh: -12; T cruzi inh: -17; Beta apoptosis: -1; UCH37 DUB inh: -2.9; AF4-AF9 inh: -3.3; FGF22 binding: inactive; Ecoli rRNA inh OD600: -10; Ecoli rRNA inh RFP: -13

What do the screens show for `COP1(=O)C[C@@H](O)[C@@H](O)[C@@H](COCc2ccccc2)O1` (stereo not given in full)?
A1 inh: 0.1; T cruzi inh: -20; Beta apoptosis: 3; UCH37 DUB inh: -0.9

What do the screens show for `COc1ccc(CC(=O)N/N=C(\C)c2cccnc2)cc1OC`?
A1 inh: -0.4; Ecoli rRNA inh: 2; T cruzi inh: 1; Beta apoptosis: 1; AF4-AF9 inh: -0.9; FGF22 binding: inactive; Ecoli rRNA inh OD600: 2; Ecoli rRNA inh RFP: 0.8

Results for CC1(C)CC(=O)C2=C(C1)NC1=C(C(=O)c3ccccc31)C2c1ccccc1 (stereo not given) ?
A1 inh: 0.2; E coli growth: 0.66; Ecoli rRNA inh: -11; T cruzi inh: 22; Beta apoptosis: 5; UCH37 DUB inh: 3.3; AF4-AF9 inh: 3.7; FGF22 binding: inactive; Ecoli rRNA inh OD600: -36; Ecoli rRNA inh RFP: 18

Results for Cc1cc(C(=O)NC2CCCN(Cc3ccccc3F)C2)no1 (stereo not given) ?
A1 inh: 0.3; E coli growth: 0.71; Ecoli rRNA inh: 11; T cruzi inh: 16; Beta apoptosis: 1; UCH37 DUB inh: 2.3; AF4-AF9 inh: -5.2; FGF22 binding: inactive; Ecoli rRNA inh OD600: 13; Ecoli rRNA inh RFP: 4.6

Results for CCOc1ccc(OCc2cccc(C(=O)O)c2)cc1 ?
A1 inh: -11; E coli growth: 0.69; Ecoli rRNA inh: -24*; T cruzi inh: -10; Beta apoptosis: 13; UCH37 DUB inh: 3.4; AF4-AF9 inh: -15; FGF22 binding: inactive; Ecoli rRNA inh OD600: -0.6*; Ecoli rRNA inh RFP: 3.6*

How did O=c1c(-c2ccccc2)c(O)c2cccc3c2n1CCC3 do in these assays?
A1 inh: -0.9; E coli growth: 0.67; T cruzi inh: -9; Beta apoptosis: -1; UCH37 DUB inh: -0.3; AF4-AF9 inh: 0.1

How did O=C(OCc1nnc(-c2ccccc2)o1)C12CC3CC(CC(Br)(C3)C1)C2 do in these assays?
E coli growth: 0.69; Ecoli rRNA inh: -24; T cruzi inh: 13; UCH37 DUB inh: 5.6; AF4-AF9 inh: -2.9; FGF22 binding: inactive; Ecoli rRNA inh OD600: -21; Ecoli rRNA inh RFP: -1.6

Results for O=C(NCCN1CCCCC1)c1ccc(Oc2cc(Cl)cc(Cl)c2)o1 ?
A1 inh: 0.0; E coli growth: 0.61; T cruzi inh: 39; Beta apoptosis: -3; UCH37 DUB inh: 2.1; AF4-AF9 inh: 7.8; FGF22 binding: inactive

How did CN(C)Cc1c(O)ccc2occ(C(O)c3ccccc3)c12 (stereo not given) do in these assays?
A1 inh: -1.3; E coli growth: 0.8; T cruzi inh: 13; Beta apoptosis: 8; UCH37 DUB inh: 5.1

Results for CC1(c2nnc(-c3cccc(Cl)c3)o2)CC(c2ccc(F)cc2)=NO1 (stereo not given) ?
A1 inh: -1.1; E coli growth: 0.68; Ecoli rRNA inh: -17; T cruzi inh: 25; Beta apoptosis: -5; UCH37 DUB inh: 0.6; AF4-AF9 inh: -4.9; FGF22 binding: inactive; Ecoli rRNA inh OD600: -25; Ecoli rRNA inh RFP: -14

How did Cc1cc(C)n(CC(O)Cn2c3ccc(Cl)cc3c3cc(Cl)ccc32)c(=O)n1 (stereo not given) do in these assays?
A1 inh: 0.3; E coli growth: 0.7; T cruzi inh: -12; Beta apoptosis: 17; UCH37 DUB inh: 3.6

What do the screens show for `O=C(COC(=O)c1cccc(S(=O)(=O)N2CCOCC2)c1)Nc1ccc(Cl)cn1`?
A1 inh: -0.3; E coli growth: 0.64; Ecoli rRNA inh: 5; Beta apoptosis: -8; UCH37 DUB inh: -0.7; AF4-AF9 inh: 0.3; FGF22 binding: inactive; Ecoli rRNA inh OD600: -16; Ecoli rRNA inh RFP: -4.4

What do the screens show for `CCc1ccccc1NC(=O)C1CCCN(c2nccc(C)n2)C1` (stereo not given)?
A1 inh: -0.2; E coli growth: 0.71; Ecoli rRNA inh: 7; T cruzi inh: -3; UCH37 DUB inh: -3.0; AF4-AF9 inh: -0.5; FGF22 binding: inactive; Ecoli rRNA inh OD600: 11; Ecoli rRNA inh RFP: 3.0

How did CC(C)C(=O)O/N=C(\N)c1ccccn1 do in these assays?
A1 inh: -0.8; E coli growth: 0.67; Ecoli rRNA inh: 7; T cruzi inh: -6; Beta apoptosis: -10; UCH37 DUB inh: 1.9; AF4-AF9 inh: 0.4; FGF22 binding: inactive; Ecoli rRNA inh OD600: 11; Ecoli rRNA inh RFP: 8.0

Entries from the list above that contain an NH in an aromatic ring (three):
Results for O=c1[nH]n(-c2ccccc2)c(=O)cc1Cl ?
E coli growth: 0.72; Ecoli rRNA inh: 6; UCH37 DUB inh: 6.8; AF4-AF9 inh: -0.6; Ecoli rRNA inh OD600: 5; Ecoli rRNA inh RFP: 0.2

How did COCCCN(C(=O)Cc1ccc(S(=O)(=O)N2CCOCC2)s1)c1c(N)n(Cc2ccccc2)c(=O)[nH]c1=O do in these assays?
E coli growth: 0.72; Ecoli rRNA inh: 8; UCH37 DUB inh: -0.8; AF4-AF9 inh: 0.0; FGF22 binding: inactive; Ecoli rRNA inh OD600: 11; Ecoli rRNA inh RFP: -2.3

How did Cc1cc(C)c(C)c(S(=O)(=O)N2CCN(C(=O)c3cc(=O)[nH]c4ccccc34)CC2)c1C do in these assays?
A1 inh: 0.0; E coli growth: 0.71; Beta apoptosis: 7; UCH37 DUB inh: -8.0

Compound activity (PubChem)
